Source: PubChem BioAssay (Broad Institute)
Vaccinia inh = Vaccinia orthopox stage-specific inhibition | activity change (mCherry), % (test concentration not listed) | Vaccinia-infected cells, mCherry/Venus stage reporter fluorescence; hits give low values; some inactives read as strong as hits | 0.01% of 89,000 active | AID 1053133;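 active = mCherry past -33% and 40 or more points under the early reporter, replicates agreeing; inconclusive = past -33% without that gap or agreement; tested in A549 cells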;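 note: scaled between vehicle wells and reference inhibitor wells; 23 nL library stock went into each well; one replicate is shown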
Vaccinia inh Venus = also measured in Vaccinia inh; calls as there; activity change (Venus), %; measured here: Venus reporter, other viral stage;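 negative = less Venus signal; first of two replicates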
* hit, by the source's call; ? = inconclusive; nt = not tested or not shown; & = joins results of further samples. The list is partial; rates above refer to the full screens.

SMILES	Vaccinia inh	Vaccinia inh Venus
C[C@H]1CCCCO[C@@H](CN(C)C(=O)NC2CCCCC2)[C@@H](C)CN([C@@H](C)CO)C(=O)c2cc(NC(=O)Nc3ccc(C(F)(F)F)cc3)ccc2O1	13	17
O=C(C[C@H]1C[C@H]2c3cc(NC(=O)c4cccnc4)ccc3O[C@H]2[C@@H](CO)O1)NCc1ccccc1F	7	-6
C[C@@H]1CN([C@@H](C)CO)C(=O)c2cc(-c3ccc(F)cc3)cnc2O[C@@H]1CN(C)CC1CC1	-19	-15
COc1cccc(-c2ccc([C@H]3[C@H](CO)N4C(=O)CN(C(=O)CN5CCOCC5)C[C@@H]34)cc2)c1	33	11
CCCNC(=O)C[C@@H]1CC[C@@H]2[C@H](COC[C@H](O)CN2C(=O)CC)O1	2	7
COc1ccc(NC(=O)N(C)C[C@@H]2Oc3c(NC(=O)c4ccc(-c5nccs5)cc4)cccc3C(=O)N([C@H](C)CO)C[C@H]2C)cc1	1	11
C[C@@H]1CN([C@H](C)CO)C(=O)CCCn2cc(nn2)CO[C@H]1CN(C)C(=O)Nc1ccccc1F	17&-1	22&4
C[C@@H]1CN([C@H](C)CO)C(=O)c2cccc(NC(=O)Nc3ccc(C(F)(F)F)cc3)c2O[C@@H]1CN(C)Cc1ccc(-c2ccccc2)cc1	?	nt
Cc1noc(C)c1NC(=O)Nc1ccc2c(c1)C(=O)N([C@H](C)CO)C[C@@H](C)[C@H](CN(C)C(=O)Nc1ccc(C(F)(F)F)cc1)OCCCC[C@H](C)O2	-10	-5
C[C@H](CO)N1C[C@H](C)[C@@H](CN(C)C(=O)NC2CCCCC2)Oc2c(NC(=O)c3ccncc3)cccc2C1=O	5	0
C[C@H](CO)N1C[C@H](C)[C@@H](CN(C)C(=O)Cc2ccncc2)Oc2ncc(C3=CCCCC3)cc2C1=O	-19	-16
COc1ccc(C(=O)N2C[C@@H]3[C@H](c4ccccc42)[C@H](CO)N3Cc2ccccc2Cl)cc1	-3	-3
O=C(NCc1ccc(F)cc1)[C@H]1[C@H](CO)[C@H]2Cn3c(cccc3=O)[C@H]2N1C(=O)C1CC1	3	0
C[C@H](CO)N1C[C@H](C)[C@@H](CN(C)Cc2ccc(C(F)(F)F)cc2)Oc2ccc(NC(=O)Cc3ccccc3)cc2C1=O	-16	-5
C[C@@H]1CN([C@H](C)CO)C(=O)Cc2cc(NS(C)(=O)=O)ccc2O[C@H]1CN(C)S(=O)(=O)c1ccccc1	12	6
C[C@@H]1CN([C@H](C)CO)C(=O)c2cc(NC(=O)Cc3ccccc3)ccc2O[C@@H](C)CCCCO[C@H]1CN(C)S(=O)(=O)c1ccc(Cl)cc1	-16	-12
COc1ccccc1NC(=O)N1C[C@@H]2[C@H](c3ccccc31)[C@@H](CO)N2C(C)=O	15	26
CO[C@@H]1CN(C)C(=O)c2ccc(NS(C)(=O)=O)cc2OC[C@H](C)N(C(=O)C2CCCC2)C[C@@H]1C	-4	4
C[C@@H]1CN([C@H](C)CO)C(=O)c2cccc(NS(=O)(=O)c3ccccc3)c2O[C@@H]1CN(C)C(=O)Nc1ccc2c(c1)OCO2	4	8
Cn1cnc(S(=O)(=O)N2[C@@H]3CNC[C@H]2C3c2ccc(-c3ccc(F)cc3)cc2)c1 (stereo not given in full)	6	-1
C[C@@H](NC(=O)[C@@H]1[C@@H](CO)[C@@H]2Cn3c(cccc3=O)[C@H]1N2C(=O)C1CCC1)c1ccccc1	17	11
COc1ccc(S(=O)(=O)Nc2ccc3c(c2)C(=O)N([C@@H](C)CO)C[C@H](C)[C@@H](CN(C)C(=O)c2ccccc2)OCCCC[C@H](C)O3)cc1	-22	-18
CO[C@@H]1CN(C)C(=O)c2ccc(NC(=O)C3CC3)cc2OC[C@@H](C)N(C(=O)c2ccccn2)C[C@H]1C	18	8
C[C@@H]1CCCCO[C@@H](CN(C)C(=O)Nc2ccc3c(c2)OCO3)[C@H](C)CN([C@H](C)CO)C(=O)c2cc(NC(=O)Nc3ccc(C(F)(F)F)cc3)ccc2O1	-32	-31
CO[C@H]1CC[C@@H]2CCOc3c(C#N)cccc3C(=O)N(C)C[C@H](C)C(=O)N(C)C[C@@H]1O2	3	-2
O=C(Nc1ccc(Cl)c(Cl)c1)N[C@H]1CC[C@@H](CCn2cc(C3CCCCC3)nn2)O[C@H]1CO	-9	-6
C[C@@H]1CCCCO[C@@H](CN(C)C(=O)CCCN(C)C)[C@H](C)CN([C@@H](C)CO)C(=O)c2cc(NS(=O)(=O)c3ccc(F)cc3)ccc2O1	6	4
O=C(N[C@H]1CC[C@@H](CCNC(=O)c2cnccn2)O[C@@H]1CO)c1ccc2c(c1)OCO2	-2	-1
O=C(O)C[C@H]1C[C@H]2c3cc(NS(=O)(=O)c4ccc(F)cc4)ccc3O[C@H]2[C@H](CO)O1	9	8
CN(C)C(=O)[C@@H]1[C@@H](CO)[C@@H]2Cn3c(ccc(-c4cccnc4)c3=O)[C@@H]2N1Cc1ccccc1F	8	3
C[C@@H]1CN([C@H](C)CO)C(=O)c2cc(NC(=O)Cc3cn(C)c4ccccc34)ccc2O[C@H]1CN(C)Cc1ccc(Oc2ccccc2)cc1	-8	-8
O=C(C1CC1)N1C[C@H]2[C@@H](c3ccccc31)[C@H](CO)N2C(=O)c1ccccc1	15	9
COc1cccc(C(=O)N2C[C@@H]3[C@H](c4ccccc42)[C@H](CO)N3C(=O)NC(C)C)c1	1	6
COc1ccc(S(=O)(=O)Nc2ccc3c(c2)C(=O)N([C@@H](C)CO)C[C@@H](C)[C@H](CN(C)C)OCCCC[C@H](C)O3)cc1	11	9
C[C@@H]1CN([C@@H](C)CO)C(=O)c2cc(NS(=O)(=O)c3ccc(Cl)cc3)ccc2O[C@@H](C)CCCCO[C@@H]1CN(C)C(=O)c1ccccc1	-30	-33
Cc1noc(C)c1S(=O)(=O)N(C)C[C@@H]1OCCCC[C@H](C)Oc2ccc(NC(=O)CCCN(C)C)cc2C(=O)N([C@H](C)CO)C[C@@H]1C	21	10
CC(C)NC(=O)N(C)C[C@@H]1OCCCC[C@H](C)Oc2ccc(NS(=O)(=O)c3ccccc3)cc2C(=O)N([C@@H](C)CO)C[C@@H]1C	10	11
CO[C@@H]1CN(C)C(=O)c2cc(NC(=O)C3CCC3)ccc2OC[C@H](C)NC[C@H]1C	2	2
CCNC(=O)C[C@H]1CC[C@@H]2[C@H](COC[C@H](O)CN2Cc2ccncc2)O1	11	21
Cc1noc(C)c1S(=O)(=O)N(C)C[C@@H]1Oc2ccc(NC(=O)C3CC3)cc2CC(=O)N([C@@H](C)CO)C[C@H]1C	11	9
CC(C)CC#Cc1ccc([C@@H]2[C@H]3CN(C(=O)Nc4cc(F)ccc4F)CC(=O)N3[C@H]2CO)cc1	?	nt
O=C(C[C@H]1CC[C@H]2[C@@H](COC[C@@H](O)CN2Cc2nccs2)O1)NCc1ccccc1F	-5	1
C[C@H]1CN([C@@H](C)CO)C(=O)c2cc(C#CCc3ccccc3)cnc2O[C@@H]1CN(C)C(=O)C1CCCCC1	-6	-2
CCC(=O)N(C)C[C@H]1Oc2cc(-c3ccccc3OC)ccc2S(=O)(=O)N([C@H](C)CO)C[C@@H]1C	-10	-7
C[C@H](CO)N1C[C@H](C)[C@@H](CN(C)C(=O)Nc2ccc3c(c2)OCO3)Oc2cc(C3=CCCCC3)ccc2S1(=O)=O	-30	-31
N#C[C@H]1N[C@@H](CO)[C@@H]1c1ccc(C#CC2CCCCC2)cc1	8	-2
O=C(C[C@H]1C[C@H]2c3cc(NC(=O)NC4CCCC4)ccc3O[C@H]2[C@H](CO)O1)NCc1ccccn1	3	4
O=C(C1=C[C@@H](c2ccccc2)C[C@@H](OCc2ccc(CO)cc2)O1)N1CCN(Cc2ccc3c(c2)OCO3)CC1	-16&10	-21&11
COc1ccc2c3c([nH]c2c1)[C@@H](CO)N(C(=O)C1CCCC1)CC31CCN(S(C)(=O)=O)CC1	14	9
C[C@H](CO)N1C[C@H](C)[C@H](CN(C)C(=O)Nc2ccc(C(F)(F)F)cc2)Oc2c(NC(=O)c3ccc(-c4nccs4)cc3)cccc2C1=O	?	nt
CC(=O)N(C)C[C@H]1Oc2cc(C#Cc3ccncc3)ccc2S(=O)(=O)N([C@H](C)CO)C[C@H]1C	34	15
COc1ccc(NC(=O)Nc2ccc3c(c2)C(=O)N([C@@H](C)CO)C[C@@H](C)[C@H](CN(C)S(=O)(=O)c2ccc(C)cc2)OCCCC[C@@H](C)O3)cc1	-5	-6
Cn1cnc(S(=O)(=O)N2CCCCN3[C@H](C2)[C@H](c2ccc(C#CC4CC4)cc2)[C@@H]3CO)c1	?	nt
CO[C@@H]1CC[C@H]2CCN(C)C(=O)C[C@@H](c3ccccc3)CN(C)C(=O)c3cc(C#N)ccc3OC[C@@H]1O2	-7	-9
CC(C)NC(=O)N(C)C[C@H]1OCCCC[C@@H](C)Oc2ccc(NC(=O)CCC(F)(F)F)cc2C(=O)N([C@H](C)CO)C[C@@H]1C	30	37
COc1ccc(NC(=O)Nc2ccc3c(c2)C(=O)N([C@H](C)CO)C[C@H](C)[C@@H](CN(C)Cc2ccc(C(=O)O)cc2)OCCCC[C@@H](C)O3)cc1	19	15
CCCNC(=O)N(C)C[C@@H]1Oc2ncc(C3=CCCC3)cc2C(=O)N([C@@H](C)CO)C[C@H]1C	2	2
CC(C)NC(=O)N(C)C[C@H]1OCCCC[C@@H](C)Oc2ccc(NC(=O)C3CCCCC3)cc2C(=O)N([C@H](C)CO)C[C@H]1C	19	3
C[C@H](CO)N1C[C@H](C)[C@@H](CN(C)S(=O)(=O)c2ccccc2)Oc2ccc(NS(=O)(=O)c3cn(C)cn3)cc2C1=O	8	0
COc1cccc(C#Cc2ccc3c(c2)O[C@H](CN(C)C(=O)CN2CCOCC2)[C@@H](C)CN([C@H](C)CO)S3(=O)=O)c1	-28	-24

As a working copy, part of the list above:
SMILES	Vaccinia inh	Vaccinia inh Venus
CO[C@@H]1CC[C@H]2CCN(C)C(=O)C[C@@H](c3ccccc3)CN(C)C(=O)c3cc(C#N)ccc3OC[C@@H]1O2	-7	-9
CC(C)NC(=O)N(C)C[C@H]1OCCCC[C@@H](C)Oc2ccc(NC(=O)CCC(F)(F)F)cc2C(=O)N([C@H](C)CO)C[C@@H]1C	30	37
COc1ccc(NC(=O)Nc2ccc3c(c2)C(=O)N([C@H](C)CO)C[C@H](C)[C@@H](CN(C)Cc2ccc(C(=O)O)cc2)OCCCC[C@@H](C)O3)cc1	19	15
CCCNC(=O)N(C)C[C@@H]1Oc2ncc(C3=CCCC3)cc2C(=O)N([C@@H](C)CO)C[C@H]1C	2	2
CC(C)NC(=O)N(C)C[C@H]1OCCCC[C@@H](C)Oc2ccc(NC(=O)C3CCCCC3)cc2C(=O)N([C@H](C)CO)C[C@H]1C	19	3
C[C@H](CO)N1C[C@H](C)[C@@H](CN(C)S(=O)(=O)c2ccccc2)Oc2ccc(NS(=O)(=O)c3cn(C)cn3)cc2C1=O	8	0
COc1cccc(C#Cc2ccc3c(c2)O[C@H](CN(C)C(=O)CN2CCOCC2)[C@@H](C)CN([C@H](C)CO)S3(=O)=O)c1	-28	-24

Next section:
SMILES	Vaccinia inh	Vaccinia inh Venus
COc1ccc(S(=O)(=O)N(C)C[C@@H]2Oc3ccc(NC(=O)Cc4cn(C)c5ccccc45)cc3CC(=O)N([C@H](C)CO)C[C@@H]2C)cc1	-14	-16
CNC[C@@H]1Oc2cc(C#Cc3ccncc3)ccc2S(=O)(=O)N([C@H](C)CO)C[C@H]1C	-4	1
CC(=O)NC[C@H]1[C@@H](c2ccc(C3=CCCCC3)cc2)[C@@H](CO)N1C(=O)C1CC1	7	11
O=C(NC1CCCCC1)N1CC2(C1)[C@H](c1ccccc1)[C@@H](CO)N2CC1CCOCC1	6	0
COc1cccc(S(=O)(=O)N[C@@H]2CC[C@H](CCN)O[C@H]2CO)c1	6	5
N#C[C@H]1[C@H](c2ccccc2C2=CCCC2)[C@@H](CO)N1C(=O)NC1CCCCC1	-32	-25
CC(=O)N(C)C[C@@H]1Oc2ncc(C#CC(C)(C)O)cc2C(=O)N([C@@H](C)CO)C[C@H]1C	14	14
COc1ccc(S(=O)(=O)N2[C@@H]3CNC[C@H]2C3c2ccc(-c3ccccc3OC)cc2)cc1 (stereo not given in full)	10&12	14&13
O=S(=O)(NCC[C@H]1CC[C@H](NS(=O)(=O)c2cccc(F)c2)[C@@H](CO)O1)c1cccc(F)c1	-16	-3
C[C@H](CO)N1C[C@H](C)[C@@H](CN(C)S(C)(=O)=O)Oc2ncc(-c3ccc(F)cc3)cc2C1=O	15	12
Cc1noc(C)c1NC(=O)N(C)C[C@@H]1Oc2ncc(/C=C/c3ccccc3)cc2C(=O)N([C@@H](C)CO)C[C@H]1C	4	9
CS(=O)(=O)N1[C@H](CO)[C@@H](c2ccccc2-c2ccc(F)cc2)[C@@H]1C#N	0	1
COc1cccc(-c2ccc([C@@H]3[C@H](CO)N4CCCCN(S(=O)(=O)c5cccs5)C[C@@H]34)cc2)c1	-26	-25
C[C@H](CO)N1C[C@H](C)[C@@H](CN(C)Cc2ccc(C(F)(F)F)cc2)Oc2ccc(NC(=O)Nc3ccccc3)cc2C1=O	-29	-16
C[C@@H]1CN([C@H](C)CO)C(=O)c2cc(NS(C)(=O)=O)ccc2O[C@H]1CN(C)C(=O)Nc1cccc2ccccc12	21	14
Cc1noc(C)c1NC(=O)N(C)C[C@H]1Oc2ccc(NC(=O)Cc3cn(C)c4ccccc34)cc2CC(=O)N([C@H](C)CO)C[C@H]1C	36	27
C/C=C/c1cnc2c(c1)C(=O)N([C@@H](C)CO)C[C@H](C)[C@H](CN(C)S(=O)(=O)c1ccc(F)cc1)O2	12	5
